Mtb hypoxia inh – PubChem AID 1159583; M. tuberculosis hypoxia-regulated fluorescent reporter, fluorescence; fluorescence inhibition, % (no concentration beside the values); 300,000 compounds, 0.1% hits;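 active = 35 to 45% if threefold the growth effect, above 45% if 1.5-fold the growth effect; inactive = the rest, general growth blockers included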;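 note: wells of about 50 µL received 100 nL stock; 0% = vehicle wells and 100% = reference inhibitor wells; whole bacteria with a GFP reporter of the hypoxia response; strong numbers were not always called active; many hits fall short of the cut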
Sa ugtP lethal – growth inhibition of ugtP-null S. aureus, primary screen, RN4220 ugtP deletion, OD600. 16 h; some inactives read as strong as hits. growth inhibition, % (test concentration not listed). 330,000 compounds, 0.54% hits. AID 1259309, 2017;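 active = z-score under -3 and OD600 up to 0.15 on both plates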;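 note: plate controls were untreated wells for no effect and antibiotic for full effect; wells of about 80 µL received 100 nL stock; the first replicate is given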
PrP 5UTR inh – inhibition of PrP 5' UTR reporter expression; cell-based PrP 5' UTR mRNA reporter, plate reader; 340,000 compounds, 0.35% hits; inhibition, % (no concentration beside the values);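 active = every replicate at 50% or more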;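 note: 0 = median of the neutral control wells; tested in H4 reporter cells; numbers are from one replicate; inactives centre near -14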
Sa RN4220 lethal – growth inhibition of S. aureus RN4220, primary screen, OD600; 16 h; AID 1259311, 2017; 330,000 compounds, 0.33% hits; inhibition, % (concentration not given with the values);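 active = z-score of -3 or lower and OD600 up to 0.18 on both plates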;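 note: plate controls were untreated cells for no effect and reference antibiotic for full effect; stock transfer was 100 nL into about 80 µL; one replicate is shown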
Bead autofluor – compound fluorescence in toxin protease inhibitor counterscreen. compound autofluorescence counterscreen, microsphere flow cytometry; stronger effect = higher value. fluorescence intensity (test concentration not listed). AID 624483. 360,000 compounds, 3.1% hits;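 active = at least 3 SD above the mean of all compounds, about 16000 in these data; inconclusive = too few beads counted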;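 note: 100 nL of 1 mM stock went into each well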
BJeLR viability – MLPCN primary cell-based screen for lethality selective to Ras in HRASV12 cells; 300,000 compounds, 0.17% hits; inhibition, % (test concentration not listed); BJeLR (HRASV12) viability, CellTiter-Glo ATP luminescence, 48 h; reference of the scale not given here; AID 1554, 2009;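 active = replicate mean above 50%; inconclusive = above 50% but judged a plate artefact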;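 note: 50 nL library stock added to about 25 µL; numbers are from one replicate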
Mtb hypoxia inh growth – recorded beside Mtb hypoxia inh, whose call it bears; growth inhibition, %; measured here: M. tuberculosis growth (absorbance);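 0% = vehicle and 100% = reference antibiotic; read after six days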
An asterisk follows results filed as active; ? = inconclusive; / = not tested or not shown; & = joins results of further samples. This is a random part of the collection; 4% or so of the library scored in one or more.

SMILES	Mtb hypoxia inh	Mtb hypoxia inh growth	Sa ugtP lethal	PrP 5UTR inh	Sa RN4220 lethal	Bead autofluor	BJeLR viability
Cc1onc(-c2ccccc2Cl)c1C(=O)Nc1ccc(S(=O)(=O)Nc2nccs2)cc1	-3	-2	7	-75	9.2	2329	-3
CN(C)C(=O)C(=O)c1c(-c2ccccc2)cc2ccccn12	/	/	0	-2	2.3	2104	-5
CS(=O)(=O)N(CC(=O)N/N=C/c1cc([N+](=O)[O-])ccc1Cl)c1ccccc1	/	/	/	-13	/	2286	10
Cc1ccc(Cl)cc1NS(=O)(=O)N1CCOCC1	1	3	4	4	4.4	5667	-9
COc1ccc2cc(-c3[nH]ncc3CN3CCCCO3)ccc2c1	9	5	29	-21	2.9	4579	2
COCCNC(=O)CN(Cc1ccc(Cl)cc1)S(C)(=O)=O	2	2	3	-15	3.4	20349*	8
CCc1ccc(NS(=O)(=O)c2ccc3[nH]cc(C(=O)N(C)Cc4ccco4)c(=O)c3c2)cc1	-6	3	8	-41	-0.3	9208	-11
Brc1cnc2ccccc2c1N1CCCCC1	11	13	13	-20	2.0	7134	-3
CC(C)N1CCN(C(=O)c2ccc(OC3CCN(CCc4ccccc4)CC3)cc2)CC1	-1	-12	2	-14	0.4	6083	-3
Cn1nnnc1SCC1=C(C(=O)O)N2C(=O)C(NC(=O)Cn3nc(C(F)F)cc3C3CC3)C2SC1 (configuration not stated)	/	/	101*	-26	100*	4292	-5
Cc1ccc(C(=O)Nn2cnnc2)cc1	3	9	18	-5	6.0	3878	1
COC(=O)c1ccc(C)c(NC(=O)Cn2c(C)csc2=O)c1	-2	5	7	-20	6.4	3767	/
CCc1ccc(/C=c2\s/c(=C\C(=O)C(C)(C)C)[nH]c2=O)cc1	/	/	/	-3	/	2360	7
O=C(OC(C(=O)Nc1ccc([N+](=O)[O-])cc1Br)c1ccccc1)c1ccccc1 (configuration not stated)	7	6	-3	-14	15	3870	6
COc1ccc(OC)c(S(=O)(=O)N2CCN(c3c(C)cccc3C)CC2)c1	1	0	-14	-16	-5.5	7302	0
Cc1c(C)c2ccc(OCC(=O)Nc3ccccc3C(N)=O)cc2oc1=O	/	/	9	-24	1.8	5679	3
C=CCN(C(=O)C1CSC2(C)CCC(=O)N12)c1nc(-c2ccccc2)cs1 (configuration not stated)	4	2	7	-17	-2.8	/	-1
O=C(O)COc1ccccc1/C=C1\SC(=S)N(N=Cc2ccccc2O)C1=O	14	7	2	/	8.1	/	/
CCOC(=O)c1cnc2c(ccc3ccccc32)c1N	1	3	13	-87	5.6	3288	-11
COC(=O)c1cccc(COC(=O)c2cccnc2SC)c1	12	10	8	-8	11	2454	0
CC(C)c1ccc(NC(=O)CSc2n[nH]c(=O)n2Cc2ccco2)cc1	12	8	9	/	1.5	/	9
CC(=O)OC1c2ccccc2C(=O)N1Cc1ccccc1Cl (configuration not stated)	2	1	4	-29	3.7	6335	9
COc1ccc(C(=O)OC(C)CN2CCN(C)CC2)cc1 (configuration not stated)	15	5	4	-8	5.1	3163	3
CC1CCC(NC(=O)CN(C)CC(=O)Nc2ccc(F)cc2)CC1 (configuration not stated)	0	12	2	6	1.1	?	/
O=C(N1CCOCC1)N1CCN(S(=O)(=O)c2cccc([N+](=O)[O-])c2)CC1	4	-3	5	-7	1.1	4430	13

Shown with two lines to a compound: three of the compounds above.
The line under a structure holds: Mtb hypoxia inh, Mtb hypoxia inh growth, Sa ugtP lethal, PrP 5UTR inh, Sa RN4220 lethal, Bead autofluor, BJeLR viability
> CC(C)c1ccc(NC(=O)CSc2n[nH]c(=O)n2Cc2ccco2)cc1
  12, 8, 9, /, 1.5, /, 9
> CC(=O)OC1c2ccccc2C(=O)N1Cc1ccccc1Cl (configuration not stated)
  2, 1, 4, -29, 3.7, 6335, 9
> COc1ccc(C(=O)OC(C)CN2CCN(C)CC2)cc1 (configuration not stated)
  15, 5, 4, -8, 5.1, 3163, 3

Carrying on:
SMILES	Mtb hypoxia inh	Mtb hypoxia inh growth	Sa ugtP lethal	PrP 5UTR inh	Sa RN4220 lethal	Bead autofluor	BJeLR viability
COCCCNC(=O)c1cc(C)nc2ccc(F)cc12	0	6	0	-9	-1.7	21925*	-1
COc1cc(OC)cc(C(=O)Nc2ccc(C(=O)Nc3ccccc3OC)cc2)c1	6	-2	-4	-11	-1.7	2821	/
COc1ccccc1NC(=O)Nc1cc(C(C)C)ccc1C	-14	-6	-4	-10	3.2	4086	22
CN1C(=O)CC(N2CCN(CCN=CC3=C(O)CC(C)(C)CC3=O)CC2)C1=O (configuration not stated)	/	/	2	-22	4.4	3438	-6
CCOCC(=O)Nc1cccc(Br)c1	/	/	10	0	-1.2	4832	7
CCc1cccc(CN2CCC(CNC(=O)Nc3ccc(Cl)cc3)CC2)c1	17	11	-3	-23	1.8	4644	4
CC(=O)c1cn(-c2ccc([N+](=O)[O-])cc2)c(=O)n(C)c1=O	1	7	6	-17	3.6	3678	4
COc1ccccc1C(=O)Nc1ccc2c(c1)nc(CCNC(C)=O)n2C	1	4	2	-46	2.3	21508*	-3
Nc1nc(COC(=O)c2ccc3c(c2)OCCO3)nc(Nc2ccccc2)n1	-5	10	-9	-16	3.2	6223	/
Oc1ccccc1C1=NN(c2ccccc2)C(c2ccc(F)cc2)C1 (configuration not stated)	3	-1	18	-65	-13	3557	-5
CC(=O)NCC(=O)NC(Cc1ccccc1)C(N)=O (configuration not stated)	13	6	-2	-12	-6.9	2877	-6
O=S(=O)(c1cccc(S(=O)(=O)N2CCC(n3nnc4ccccc43)CC2)c1)N1CCCCC1	1	3	-9	5	-5.4	4154	1
CCNS(=O)(=O)c1ccc(NC(=O)c2cccnc2)cc1	-4	-4	5	-13	1.2	8510	/
COCC1CCCN(Cc2nc(C(c3ccccc3)c3ccccc3)no2)C1 (configuration not stated)	4	0	5	-24	5.7	4771	2
Cc1cc(NC(=O)CCC(=O)N(c2ccc(F)cc2)C(C(=O)NC2CCCC2)c2ccncc2)no1 (configuration not stated)	2	3	2	-9	1.2	3307	3
Cc1[nH]c2ccccc2c1/C=N/NS(=O)(=O)c1ccccc1	/	/	/	-1	/	9691	1
Cc1cccc(N2CN(S(=O)(=O)c3cccc([N+](=O)[O-])c3)c3nc4ccccc4nc32)c1	-5	6	-3	-21	6.5	3640	/
O=c1c2ccccc2nc2n1CCCCN2	/	/	5	-25	-0.6	3529	2
O=C(CCNS(=O)(=O)c1ccccc1Cl)OCc1nnc(-c2ccccc2Cl)o1	7	2	-3	-13	0.4	8922	/
CC1CCC2C(=O)N(c3cccc(C(=O)Nc4ccccc4Cl)c3)C(=O)C2C1 (configuration not stated)	9	-3	1	-6	1.9	4963	-1
COc1ccc(NC(=O)CSc2nnc(-c3ccco3)n2N)cc1Cl	-1	-5	3	-6	3.7	4823	-9
CC1CCCN(C(=O)CN2C(=O)c3ccccc3C2=O)C1 (configuration not stated)	13	7	-14	-20	3.2	10794	11
CC(C=NNC(=O)c1ccccc1F)c1ccccc1 (configuration not stated)	6	3	5	/	3.6	/	/
CC12CCCCC1N(O)C(=O)C(=O)N2O (configuration not stated)	9	15	-3	-6	-0.7	2140	-12
Cn1cccc1Cc1nnc(SCC(=O)NC2CCCCC2)n1-c1ccc(F)cc1	/	/	-2	-22	5.2	6569	1

Next section.
SMILES	Mtb hypoxia inh	Mtb hypoxia inh growth	Sa ugtP lethal	PrP 5UTR inh	Sa RN4220 lethal	Bead autofluor	BJeLR viability
CCOC1OC(C(=O)N2CCN(Cc3ccc4c(c3)OCO4)CC2)=CC(c2cn(C(C)=O)c3ccccc23)C1CCCO (configuration not stated)	7&6	13&1	8&-13	/	1.3&2.9	/	/
CCC(=O)N1CCc2cc(S(=O)(=O)NCCCN3CCN(Cc4ccccc4)CC3)ccc21	/	/	-3	-28	1.7	3000	-5
Cc1cccc(N2CCN(C(=O)c3ccc(CS(=O)(=O)c4ccccc4C)o3)CC2C)c1 (configuration not stated)	8	6	11	15	5.4	21673*	29
O=C(O)c1cccc(S(=O)(=O)Nc2ccccc2N2CCOCC2)c1	3	-6	8	-7	0.9	4506	-8
CN(C)CCCNCC(=O)Nc1ccc(Cl)cc1C(=O)c1ccccc1	/	/	/	2	/	3831	-5
O=C(CN1C(=O)c2ccccc2C1=O)NCC(=O)OCC(=O)c1cccc([N+](=O)[O-])c1	-8	-16	10	-15	1.3	4197	-1
Cc1ccc(S(=O)(=O)[N-]c2nc3ccccc3nc2-n2cc[n+](Cc3ccccc3)c2)cc1	-6	-4	6	-103	1.7	?	22
Cn1cc(Br)c(C(=O)Nc2sc3c(c2C(N)=O)CCC3)n1	/	/	3	-33	1.8	2311	1
COc1ccc(Cl)cc1C(=O)n1cnc2ccccc21	-3	2	3	-10	-1.7	2877	-8
COc1ccccc1C(C)NC(=O)Cc1ccc(S(=O)(=O)N2CCOCC2)s1 (configuration not stated)	-2	0	4	-13	1.5	?	-2
O=C(Nc1ccc2c(c1)OCO2)N1CCN(c2ccccc2Cl)CC1	0	4	7	-29	3.1	11444	-9
COc1ccc(OCC(=O)NCCCCCCNC(=O)COc2ccc(OC)cc2)cc1	6	4	-3	-1	-3.2	4680	-2
CC1(C)CC(=O)C(C=Nc2ccccc2Sc2ccccc2)=C(O)C1	/	/	-3	-16	0.6	5164	4
COc1ccc(CC(=O)Nc2ccccc2NC(=O)Cc2ccc(OC)cc2)cc1	-2	0	1	-6	1.2	3799	7
Cc1cccc(OCC2=NS(=O)(=O)c3ccccc3N2)c1	7	9	0	-37	-0.7	3452	1
Cc1nn(CCC(=O)NCc2ccc(N(C)C)cc2)c(=O)c2nn(-c3ccccc3)c(C)c12	14	6	2	-9	0.2	5679	-2
CC(NCc1ccc(F)cc1)C(=O)Nc1cc(S(=O)(=O)N2CCCCC2)ccc1Cl (configuration not stated)	/	/	/	-2	/	4361	5
COc1ccc(N2CCN(C(=S)NCc3ccc(C)cc3)CC2)cc1	-2	6	-5	-31	4.1	4473	-3
CCOC(=O)c1c(C)[nH]c(C(=O)NNC(=O)c2ccccc2)c1C	7	11	9	-28	6.8	7753	-12
C=CCN1C(=O)c2ccc(C(=O)N3CCC(C(N)=O)CC3)cc2C1=O	-12	-10	1	-3	3.1	/	-2
CC(C)c1nnc(NC(=O)CC(=O)Nc2ccccc2C(=O)O)s1	/	/	4	13	3.3	5565	-14
CC(=O)N1CCN(C(=O)c2cccc(S(=O)(=O)NCc3ccccc3)c2)CC1	1	1	-3	-13	1.7	?	-9
COc1ccc(-n2ncc(C(C)NS(=O)(=O)c3cccs3)c2C)cc1 (configuration not stated)	3	3	-3	-3	3.8	4417	6
CSc1nc(C)[nH]c(=O)c1C#N	-1	0	8	-8	1.5	5912	-3
N#CC1=C(SCc2ccccc2)NC(=O)CC1c1ccc(O)cc1 (configuration not stated)	-2	-1	1	-9	2.0	11415	5

Going on with the list:
SMILES	Mtb hypoxia inh	Mtb hypoxia inh growth	Sa ugtP lethal	PrP 5UTR inh	Sa RN4220 lethal	Bead autofluor	BJeLR viability
CC(C)OC(=O)CC(NC(=O)OC(C)(C)C)c1ccccc1 (configuration not stated)	19	13	6	/	5.3	/	-2
O=C1CC(SCCc2nc3ccccc3[nH]2)C(=O)N1c1ccc(F)c(Cl)c1 (configuration not stated)	0	5	-7	-29	2.5	3435	0
CCCOCC1CC2(SC(=Nc3ccc(C)cc3)NC2=O)C(=O)O1 (configuration not stated)	-3	8	3	-18	0.7	4538	3
CC(C)c1cc(Br)c(NC(=O)Nc2cccnc2)c(Br)c1	1	-3	0	-17	4.7	4142	2
O=C(COC(=O)c1ccccc1)c1ccc(S(=O)(=O)N2CCCCC2)cc1	6	2	6	-12	5.2	5053	/
CC1COC2N=C(N[N+](=O)[O-])NC2O1 (configuration not stated)	-3	-12	16	-17	6.3	2214	-3
O=C(CCNC(=O)c1ccc(Br)cc1)NCC1CCCO1 (configuration not stated)	0	7	2	-14	-0.5	/	-7
COc1cc(/C=C2/C(=N)N3C=CSC3=NC2=O)ccc1OCCOc1ccc(NC(C)=O)cc1	13	4	-2	-46	4.0	2547	-8
COCCNC(=O)c1cc2ncc(Br)cn2n1	7	0	7	-30	3.7	10682	3
